Screening data (PubChem BioAssay)
Ecoli rRNA inh: inhibits bacterial ribosomal RNA function over humanized ribosomes | E. coli WT GFP vs humanized-ribosome RFP mutants, fluorescence, 24 h; hits give low values; DMSO median 0, no signal -100 | GFP signal change (wild-type ribosome), % (concentration not given with the values) | hit rate 1.6% among 350,000;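 active means significant combined selectivity score with lowered wild-type GFP, culture density cut under 30%, mutant RFP and density less affected; inactive means any of these conditions unmet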; further: one replicate is shown; some compounds called inactive have numbers as strong as hits
MLL AF4-AF9 inh: blocks AF4 peptide binding to human AF9; P42568; AlphaScreen, biotin-AF4 peptide binding to FLAG-AF9; inhibition, % at 10 µM; hit rate 0.47% among 350,000;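 active means every replicate reaching a set inhibition limit, whatever the replicate mean, cut at about 25% in these data; inconclusive means mean inhibition reaches that limit but some replicates miss it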;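 further: 0% = plate neutral control median and 100% = total signal loss; the record names both 10 and 1 µM as test concentration; the first replicate is given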
Target sequence (P42568 whole entry, looked up): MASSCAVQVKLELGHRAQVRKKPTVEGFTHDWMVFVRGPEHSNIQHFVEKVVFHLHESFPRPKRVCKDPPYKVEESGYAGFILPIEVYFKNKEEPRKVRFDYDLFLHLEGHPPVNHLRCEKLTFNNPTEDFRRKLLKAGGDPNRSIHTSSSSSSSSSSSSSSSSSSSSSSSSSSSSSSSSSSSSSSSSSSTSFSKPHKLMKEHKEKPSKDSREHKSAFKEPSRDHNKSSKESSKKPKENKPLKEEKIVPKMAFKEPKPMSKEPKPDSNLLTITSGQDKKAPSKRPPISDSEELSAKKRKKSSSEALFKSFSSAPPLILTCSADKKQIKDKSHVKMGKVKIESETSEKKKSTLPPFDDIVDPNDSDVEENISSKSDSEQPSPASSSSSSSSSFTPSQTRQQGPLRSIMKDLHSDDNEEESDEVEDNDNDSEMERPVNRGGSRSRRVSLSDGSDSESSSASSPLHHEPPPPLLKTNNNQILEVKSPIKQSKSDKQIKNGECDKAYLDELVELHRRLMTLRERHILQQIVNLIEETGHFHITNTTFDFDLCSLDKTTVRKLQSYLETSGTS
Calb FLC: C. albicans growth modulation with fluconazole; C. albicans CaCi-2 (fluconazole-resistant clinical isolate) + fluconazole, Alamar Blue growth, 48 h; growth inhibition, % (test concentration not listed); hit rate 0.57% among 300,000; AID 1979;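 active means most replicates above 75%; inconclusive means exactly half above 75%; inactive means most below 75%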;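 further: all wells also contain fluconazole at 8 µg/ml as a sub-toxic cotreatment; 0% = median of DMSO wells and 100% = median of geldanamycin control wells; wells of about 8 µL received 7.5 nL stock; the first replicate is given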
ALR H2O2 inh: blocks human ALR sulfhydryl oxidase activity; P55789; purified ALR, DTT oxidation, H2O2 HRP-luminol luminescence; inhibition, % (test concentration not listed); hit rate 3.8% among 290,000;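 active means mean and each replicate at 75% or more; inconclusive means only one of the two met; inactive means neither met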;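 further: stock transfer was 7.5 nL into about 7.5 µL; 0% = neutral wells and 100% = wells with inactivated enzyme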
Target sequence (P55789 whole entry, looked up): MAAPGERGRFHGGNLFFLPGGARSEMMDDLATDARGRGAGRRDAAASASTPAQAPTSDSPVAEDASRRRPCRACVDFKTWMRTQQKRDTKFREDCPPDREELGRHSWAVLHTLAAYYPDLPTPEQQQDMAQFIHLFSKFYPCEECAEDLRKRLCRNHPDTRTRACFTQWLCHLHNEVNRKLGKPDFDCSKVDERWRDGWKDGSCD
Beta apoptosis: beta cell apoptosis inhibition | INS-1E cytokine-induced death, ATP luminescence, 48 h; percent of positive-control rescue, neutral wells zero | protection from apoptosis, % (no concentration beside the values) | hit rate 0.8% among 300,000;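 active means all replicates at 75% or more, or half of them and the mean; inconclusive means half reach 75% but not the mean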;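 further: 0% = cytokine-treated negative control wells and 100% = positive control rescue; higher means more ATP so stronger rescue from cytokine killing; wells of about 40 µL received 100 nL stock; the first replicate is given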
FGF22 binding: FGF22 (human) thermal shift binding; recombinant FGF22 thermal shift, SYPRO orange fluorescence; percent of sucrose octasulfate shift, DMSO zero; calls only at 9.99 µM; AID 651658; hit rate 1.5% among 340,000;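 active means melting point raised past a set limit in the mean and every replicate; inconclusive means no clear call; three in four hits are not shown here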
Target sequence (Q9HCT0 whole entry, looked up): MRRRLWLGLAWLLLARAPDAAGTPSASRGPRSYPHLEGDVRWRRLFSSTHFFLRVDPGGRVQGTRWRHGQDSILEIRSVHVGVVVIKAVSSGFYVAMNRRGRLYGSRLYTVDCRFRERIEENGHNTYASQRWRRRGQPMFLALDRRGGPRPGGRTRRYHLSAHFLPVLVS
T cruzi inh: T. cruzi replication inhibition; hit rate 1.4% among 300,000; AID 1885; T. cruzi beta-gal in NIH3T3, luminescence, 90 h; inhibition, % (concentration not given with the values);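 active means mean inhibition across valid replicates above about 55%, limit read from the data; inconclusive means mean below that limit but half or more replicates reach it; inactive means mean below it, under half of replicates reach it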;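 further: signal also drops with host cell toxicity which is not excluded here; 0% = plate median of DMSO wells and 100% = zero luminescence signal; higher percent means less beta-gal luminescence so fewer parasites; stock transfer was 50 nL into about 50 µL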
RanGTP-Impb inh: inhibitors of RanGTP-importin-beta interaction, primary screen, biochemical, FRET, CFP-Ran, YFP-importin-beta, homogeneous; inhibition, % (test concentration not listed); cell-free CFP-Ran/YFP-importin-beta FRET ratio; hit rate 1.1% among 300,000; AID 2216;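 active means most replicates above 15%; inconclusive means exactly half above 15%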;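 further: 0% = DMSO wells and 100% = Ran loaded with GDP instead of GTP; wells of about 40 µL received 100 nL stock; the first replicate is given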
Ecoli rRNA inh OD600: also measured in Ecoli rRNA inh; calls as there; OD600 change, %; measured here: OD600 growth;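 optical density of the mix in the first replicate; 0 = DMSO median and -100 = no signal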
Ecoli rRNA inh RFP: recorded beside Ecoli rRNA inh, whose call it bears; RFP signal change, %; measured here: RFP humanized mutant strains;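 first replicate; 0 = DMSO median and -100 = no signal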
* hit, by the source's call; i = inactive; ? = inconclusive; . = no result given. The list is partial (hit frequency here may not be typical).

SMILES	Ecoli rRNA inh	Ecoli rRNA inh OD600	Ecoli rRNA inh RFP	MLL AF4-AF9 inh	Calb FLC	ALR H2O2 inh	Beta apoptosis	FGF22 binding	T cruzi inh	RanGTP-Impb inh
CN(CC(=O)Nc1c(Cl)cccc1Cl)C(=O)c1cccc(-n2cccc2)c1	0.2	1.1	1.8	5.2	-2.3	10.4	-7.8	.	0.1	0.0
O=C1CC(=O)Nc2cc(S(=O)(=O)N3CCOc4ccc(Cl)cc43)ccc2N1	-13.1	-23.5	-3.7	-1.0	1.7	-0.2	-3.9	i	-24.2	-0.4
O=C(NCc1ccc(Cl)cc1)c1cccnc1	.	.	.	.	0.6	-3.9	19.6	.	-8.5	5.0
O=C(Cn1c(=O)n(Cc2ccco2)c(=O)c2c3c(sc21)CCCCC3)Nc1ccccc1	.	.	.	.	5.6	11.4	-6.5	.	-26.2	-3.1
Cc1cc(Br)ccc1NC(=O)CN(C)C(=O)c1cc(S(=O)(=O)N(C)C)ccc1N1CCCC1	-3.7	-6.5	1.8	-0.8	4.6	-4.5	2.1	i	9.9	-1.4
CN(C)C(=O)N1CCCC(C(=O)NCc2cccs2)C1 (centres undefined)	.	.	.	.	-23.4	0.9	-8.5	.	-0.1	-0.1
COc1ccc(-c2ccc(C(=O)C3CC3)cc2)cc1	3.4	12.2	-1.9	-1.3	-10.4	-3.9	-1.0	i	5.5	-0.3
CC(C)OC(=O)CCCCCN1C(=O)CSC1=S	.	.	.	.	0.6	-7.3	-5.6	.	56.1*	1.5
O=C(NCCCc1ccccc1)c1cnc2n(c1=O)CCS2	.	.	.	.	27.7	-6.2	-4.8	.	6.8	1.5
N#CC(c1cccc(Cl)c1)c1ccc2c(C(F)(F)F)cc(C(F)(F)F)nc2n1 (centres undefined)	.	.	.	.	6.4	.	114.1*	.	20.1	-1.8
COc1ccc(CC(NC(C)=O)C(=O)NC2CCN(C(=O)c3cnccn3)CC2)cc1 (centres undefined)	.	.	.	.	-3.9	.	-1.3	.	-5.1	-2.0
CC(/C=C/c1ccccc1)=N\Nc1nc(C)cc(C)n1	.	.	.	.	-12.6	1.7	46.6	.	-3.5	1.0
CC(OC(=O)c1ccc([N+](=O)[O-])o1)C(=O)NC1CCCCC1C (centres undefined)	15.6	6.1	0.6	-0.7	.	-38.9	0.5	i	.	.
CCOC(=O)Cc1csc(SC(C)C(=O)NCC(=O)Nc2ccc(F)c(F)c2F)n1 (centres undefined)	2.8	2.6	-3.1	-0.8	-3.0	-3.6	.	i	1.5	9.2
Cc1ccccc1-n1c(SCC(=O)N2CCCC2)nnc1-c1ccccn1	.	.	.	.	13.8	1.1	-3.0	.	-8.5	-3.0
CN(C)CCCNC(=S)NCC(c1ccc(Cl)cc1Cl)c1c[nH]c2ccccc12 (centres undefined)	-58.5	-81.3	-18.6	35.3*	1.5	8.3	17.2	i	39.0	0.8
O=C(Nc1nnc(C2CC2)s1)c1cccs1	6.9	15.6	-0.7	-2.0	.	-0.2	-2.6	i	1.6	.
CC(=O)CSc1nnc2cc(C)c3ccccc3n12	6.4	4.4	-1.1	1.3	12.2	15.6	.	i	-2.9	-2.4
COc1ccc(OC)c(CN2CCN(Cc3cc(OC)c(OC)c(OC)c3)CC2)c1	8.0	10.8	-1.6	-0.3	1.4	-14.4	-11.8	i	-7.5	8.5
O=C(O)c1cccc(NC(=S)NC(=O)c2ccc(-c3ccccc3)cc2)c1	2.9	3.7	-2.4	-2.0	?	16.6	-3.1	i	-1.2	-0.5
COc1ccc(N2CCN(C(=O)CCCCn3c(=O)[nH]c4ccsc4c3=O)CC2)cc1	-7.2	-2.3	-5.3	7.0	0.9	83.2*	-3.5	i	-3.9	-0.8
Cc1cccc(N2CCN(c3nc4ccccc4n4cnnc34)CC2)c1C	11.3	14.4	2.0	-8.2	0.1	5.6	11.1	i	49.6	-1.8
N/C(=N\OC(=O)/C=C/c1ccccc1)c1ccccc1	.	.	.	.	-2.2	1.1	0.6	.	27.8	3.3
Cc1nnsc1C(=O)Nc1ccc(S(=O)(=O)N2CCCC(C)C2)cc1 (centres undefined)	11.9	10.0	3.3	2.3	-4.3	-15.7	.	i	-19.6	-1.7
COc1ccc(OC)c(S(=O)(=O)N2CCN(c3ncccn3)CC2)c1	0.0	2.0	2.8	2.4	4.1	-0.9	1.6	i	-6.6	0.4
(cont.)
SMILES	Ecoli rRNA inh	Ecoli rRNA inh OD600	Ecoli rRNA inh RFP	MLL AF4-AF9 inh	Calb FLC	ALR H2O2 inh	Beta apoptosis	FGF22 binding	T cruzi inh	RanGTP-Impb inh
COc1ccc(N(C(=O)c2ccco2)C(C(=O)NC2CCCC2)c2cc(OC)c(OC)c(OC)c2)cc1 (centres undefined)	8.9	14.2	-1.7	1.0	-11.6	.	-1.2	i	-0.6	1.0
COc1ccccc1N1CCN(C(=O)COc2ccc(Cl)cc2Br)CC1	.	.	.	.	-1.6	1.5	-5.9	.	18.1	-2.1
CCn1c(=O)c2ccccc2n2c(SCC(=O)N3CCc4ccccc4C3)nnc12	.	.	.	.	-3.0	-8.5	-3.4	.	-7.3	-2.2
CN(C)CCCNC(=O)CCC1CCCCC1	.	.	.	.	-0.4	2.1	-6.4	.	39.4	4.2
Cc1ccc(S(=O)(=O)Nc2cccc(C(=O)NCC3CCCO3)c2)cc1F (centres undefined)	-0.9	5.4	1.3	0.6	3.2	-5.6	4.5	i	-14.0	-2.4
CCOC(=O)c1sc2ncnc(N3CCN(c4ccc(OC)cc4)CC3)c2c1C	.	.	.	.	-2.3	12.8	2.3	.	25.2	-2.8
CCOC(=O)N1CCN(C(c2ccccc2)c2sc3nc(C)nn3c2O)CC1 (centres undefined)	3.3	-13.7	1.0	3.8	-15.4	-2.1	.	i	-24.3	0.8
O=S(=O)(Nc1ccc(Cc2ccncc2)cc1)c1ccc(Cl)c(Cl)c1	-29.7	-24.6	2.9	-11.4	6.4	4.3	5.6	i	1.9	-0.8
COc1cc(Br)c(C2CC(=O)Nc3cc(OC)c(OC)cc32)cc1OC (centres undefined)	2.6	-4.8	1.7	6.0	4.1	-15.9	-4.6	i	5.1	-1.3
Cc1cc(C(F)(F)F)c(C#N)c(SCC(=O)NC2CC2)n1	.	.	.	.	44.2	-13.1	-8.6	.	14.1	-2.8
COC(=O)c1ccc(CC(=O)c2c(C)cc(O)cc2O)o1	.	.	.	.	1.9	.	-2.6	.	6.8	-1.0
CCCc1cc2nnc(SCC(=O)N(C)C3CCCCC3)n2c(N)n1	-0.1	8.4	2.3	1.3	2.0	0.8	1.3	i	-4.2	1.9
COC(=O)c1cc(OC)c(OC)cc1NC(=O)c1cc(C(C)(C)C)oc1C	1.7	2.9	2.0	-5.1	-5.0	-3.5	-5.5	i	.	3.1
N#Cc1nc(-c2ccccc2Cl)oc1NCc1ccco1	.	.	.	.	1.6	8.7	4.2	.	22.9	-4.2
Cc1cc(N2CCN(C)CC2)nc(N2CCOCC2)n1	.	.	.	.	3.0	-12.4	-4.9	.	9.1	6.0
COc1ccc(-n2nc3c(c2NC(=O)c2ccc(S(=O)(=O)N4CCOCC4)cc2)CS(=O)(=O)C3)cc1	9.5	9.9	1.7	0.0	9.7	-27.0	-1.5	i	9.0	-2.2
O=C(Nc1ccc2c(c1)CCC2)c1c(F)cccc1Cl	-4.9	-1.8	-4.5	-0.5	-2.4	-1.3	-12.2	i	6.5	6.3
CCCCC1CCC(C(=O)N(CCCC)c2c(N)n(CCCC)c(=O)[nH]c2=O)CC1 (centres undefined)	18.6	14.6	3.0	-1.5	-3.9	1.2	48.5	i	11.3	8.0
Nn1c(SCC(=O)Nc2cccc(Br)c2)nnc1C1CC1	-1.3	2.8	6.9	-0.2	.	-10.7	-0.4	i	.	.
O=C1CC(N2CCN(CCc3ccccn3)CC2)C(=O)N1c1ccc(Cl)cc1 (centres undefined)	.	.	.	.	-3.6	5.0	.	.	-3.6	3.9
Cc1ccc(C)c(NC(=O)CCN2C(=O)[C@@H]3Cc4ccccc4CN3C2=O)c1	-0.6	-4.6	-0.2	-1.4	-2.2	-1.8	-5.3	i	-1.5	3.5
O=C(O)C1CC=CCC1C(=O)NC1CCCCC1 (centres undefined)	21.7	16.5	0.4	-0.2	-8.3	-0.7	-0.7	i	-2.0	0.1
COc1ccc(CN2CCCC(CNC(=O)c3ccc(F)cc3)C2)c(F)c1 (centres undefined)	.	.	.	-1.3	-17.4	.	-5.8	.	35.8	-1.7
CCSc1nnc(NC(=O)/C=C/c2ccco2)s1	7.0	8.2	7.0	-0.1	7.3	1.6	-6.9	i	-21.3	4.3
Cc1ccccc1-c1nc(CN2CCC(C(=O)NCc3cccs3)CC2)c(C)o1	.	.	.	.	-21.5	-13.7	-5.9	.	4.0	2.9
(cont.)
SMILES	Ecoli rRNA inh	Ecoli rRNA inh OD600	Ecoli rRNA inh RFP	MLL AF4-AF9 inh	Calb FLC	ALR H2O2 inh	Beta apoptosis	FGF22 binding	T cruzi inh	RanGTP-Impb inh
COc1ccc(N(CC(=O)NC2CCCCCCC2)S(=O)(=O)c2c(C)nn(C)c2C)cc1	2.0	6.3	-4.5	-6.9	2.7	-6.0	5.2	i	-7.7	2.0
OCCC1CN(Cc2cccc(-n3cccn3)c2)CCN1Cc1ccccc1 (centres undefined)	-3.4	-3.5	0.3	-1.9	9.4	3.3	-21.8	i	-5.8	-4.4
CCOc1ccccc1NC(=O)Cn1nnc(-c2ccc(OCC)c(OCC)c2)n1	8.4	11.4	-5.0	2.8	0.8	1.1	.	i	2.1	1.8
COc1cccc(C(=O)Nc2cc(C(F)(F)F)ccc2Cl)c1	-6.9	-0.1	-3.1	3.2	-2.5	-4.4	6.3	i	2.7	-0.9
O=C(Nc1ccc(F)cc1F)C1CCN(C(=O)c2ccc(Br)cc2)CC1	-2.2	-4.8	3.0	-4.6	8.4	-6.0	-11.6	i	-17.7	5.6
CCCCCCn1c(CN2CCCCC2CC)nc2c1c(=O)n(C)c(=O)n2C (centres undefined)	5.0	2.8	2.8	?	3.2	-12.1	12.8	i	30.8	0.4
Cc1ccc2nc(-c3ccccc3)cc(C(=O)Nc3cccnc3)c2c1	11.2	19.2	2.8	0.1	.	2.5	3.4	i	.	.
O=C(NCCc1ccccn1)C1CCCN1S(=O)(=O)c1ccc(Cl)cc1 (centres undefined)	0.4	7.9	-4.4	-1.0	3.3	-23.8	-3.7	i	-8.3	-3.8
O=C(CSC1=NC2(CCCCCC2)N=C1c1ccccc1)Nc1ccc2c(c1)OCCO2	-4.1	-5.4	-2.2	-1.6	9.3	98.1*	8.1	i	38.7	-3.4
Cc1cc(C)n(Cc2ccccc2)c(=O)c1S(=O)(=O)c1ccccc1	.	.	.	.	10.3	-15.7	-10.5	.	-9.8	0.9
COC(CNC(=O)CN1CCN(Cc2ccccc2F)C1=O)OC	9.0	10.3	-0.8	-3.1	0.3	.	-1.1	i	-4.1	2.2
O=C(COc1ccc(S(=O)(=O)N2CCOCC2)cc1)NC1CCCC1	.	.	.	.	-7.0	-9.1	-5.8	.	-4.9	6.5
